# Mtb hypoxia inh: inhibitors of hypoxia-regulated fluorescent reporter in Mycobacterium tuberculosis; 300,000 compounds, 0.1% hits; M. tuberculosis hypoxia-regulated fluorescent reporter, fluorescence; fluorescence inhibition, % (concentration not given with the values);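 active = 35 to 45% if threefold the growth effect, above 45% if 1.5-fold the growth effect; inactive = the rest, general growth blockers included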;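 also: wells of about 50 µL received 100 nL stock; 0% = vehicle wells and 100% = reference inhibitor wells; whole bacteria with a GFP reporter of the hypoxia response; strong numbers were not always called active; many hits fall short of the cut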
# PrP 5UTR inh: suppresses PrP 5' UTR mRNA reporter expression; cell-based PrP 5' UTR mRNA reporter, plate reader; inhibition, % (concentration not given with the values); 340,000 compounds, 0.35% hits;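 active = every replicate at 50% or more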;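 also: 0 = median of the neutral control wells; tested in H4 reporter cells; numbers are from one replicate; inactives centre near -14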
# BJeLR viability: kills HRASV12-expressing BJeLR cells; BJeLR (HRASV12) viability, CellTiter-Glo ATP luminescence, 48 h; reference of the scale not given here; inhibition, % (no concentration beside the values); 300,000 compounds, 0.17% hits; AID 1554;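 active = replicate mean above 50%; inconclusive = above 50% but judged a plate artefact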;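 also: 50 nL library stock added to about 25 µL; numbers are from one replicate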
# Bead autofluor: compound fluorescence in toxin protease inhibitor counterscreen; compound autofluorescence counterscreen, microsphere flow cytometry; stronger effect = higher value; fluorescence intensity (concentration not given with the values); 360,000 compounds, 3.1% hits;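 active = at least 3 SD above the mean of all compounds, about 16000 in these data; inconclusive = too few beads counted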;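 also: 100 nL of 1 mM stock went into each well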
# RN4220 kill: S. aureus RN4220 growth inhibition; OD600, 16 h; inhibition, % (no concentration beside the values); 330,000 compounds, 0.33% hits; AID 1259311;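 active = z-score of -3 or lower and OD600 up to 0.18 on both plates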;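 also: plate controls were untreated cells for no effect and reference antibiotic for full effect; stock transfer was 100 nL into about 80 µL; one replicate is shown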
# Sa ugtP lethal: compounds lethal to S. aureus RN4220 ugtP deletion mutant | OD600 growth, 16 h; some inactives read as strong as hits | growth inhibition, % (test concentration not listed) | 330,000 compounds, 0.54% hits;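 active = z-score under -3 and OD600 up to 0.15 on both plates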;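 also: plate controls were untreated wells for no effect and antibiotic for full effect; wells of about 80 µL received 100 nL stock; the first replicate is given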
# Mtb hypoxia inh growth: recorded beside Mtb hypoxia inh, whose call it bears; growth inhibition, %; measured here: M. tuberculosis growth (absorbance);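 0% = vehicle and 100% = reference antibiotic; read after six days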
# * marks the source's active call; other numbers are inactive results; ? = inconclusive; . = no result given; & = joins results of further samples. Not a hit list. Share with any hit: about 4%.
SMILES,Mtb hypoxia inh,Mtb hypoxia inh growth,PrP 5UTR inh,BJeLR viability,Bead autofluor,RN4220 kill,Sa ugtP lethal
C=CCn1c(COc2ccc(F)cc2)nnc1SC(C)C(=O)NCC1CCCO1 (stereo not given),-1.3,0.6,-24.4,.,3517,4.6,0.1
O=C(CSCc1cnn(-c2ccccc2)c1-n1cccc1)NCC1CCCO1 (stereo not given),2.4,6.1,-31.1,1.1,2944,-4.8,-4.6
Cc1ccc(CC(=O)Nc2nncs2)cc1,-0.2,-14.9,-8.8,-1.0,4096,-3.7,4.3
CC(C)Cc1nnc(NC(=O)c2cc(-c3ccncc3)nc3ccccc23)s1,-1.2,8.3,-25.3,2.9,5007,1.4,-8.7
O=C(Oc1c(Cl)cc(Cl)c2ccccc12)N1CCCCC1,.,.,5.7,-15.3,2243,-0.4,72.7
COc1ccc(C(=O)Nc2ccc(N3CCOCC3)cc2)cc1S(=O)(=O)NC1CCCC1,-5.3,13.8,-25.8,-2.9,3044,4.7,2.8
Cc1ccc(Nc2nc3c(c(=O)[nH]c(=O)n3C)n2Cc2ccc(F)cc2)cc1,.,.,-8.6,10.8,5753,3.3,-4.1
CC(C)(C)c1ccc(C=NNc2cccc(C(=O)O)c2)cc1,0.0,9.4,.,.,.,5.4,15.4
O=C(Cn1ccc(C(F)(F)F)n1)NN=Cc1cccs1,-3.0,-3.5,.,.,.,6.5,4.6
O=S(=O)(c1ccc(SCCOc2ccc(Br)cc2)nc1)N1CCCC1,-2.5,1.1,-9.7,.,2873,-2.5,11.1
CCOC(=O)c1c(NC(C)=O)sc(C(C)=NNc2ccc(C(=O)O)cc2)c1C,0.7,1.8,.,.,.,6.8,-2.7
COc1cccc(CN(C)C(=O)[C@@H](NC(=O)c2ccc(C)cc2)C(C)C)c1,-3.5,-9.7,-22.0,-4.2,3797,-0.4,6.7
C/C(=N\Nc1nc2ccccc2[nH]1)c1ccc(C)o1,.,.,-102.9,-3.5,2355,.,.
COc1ccc(OC)c(S(=O)(=O)n2nc(C)cc2C)c1,5.5,1.8,-3.7,-11.9,3735,3.9,-1.0
Cc1ccc(S(=O)(=O)N[C@@H](Cc2ccccc2)C(=O)N2CCC(C(=O)N[C@H](C(=O)O)C(C)O)CC2)cc1 (stereo not given in full),-3.9,-4.9,.,-8.8,3297,-1.6,-0.7

# Rewritten bar-delimited: part of the list above.
SMILES | Mtb hypoxia inh | Mtb hypoxia inh growth | PrP 5UTR inh | BJeLR viability | Bead autofluor | RN4220 kill | Sa ugtP lethal
O=C(CSCc1cnn(-c2ccccc2)c1-n1cccc1)NCC1CCCO1 (stereo not given) | 2.4 | 6.1 | -31.1 | 1.1 | 2944 | -4.8 | -4.6
Cc1ccc(CC(=O)Nc2nncs2)cc1 | -0.2 | -14.9 | -8.8 | -1.0 | 4096 | -3.7 | 4.3
CC(C)Cc1nnc(NC(=O)c2cc(-c3ccncc3)nc3ccccc23)s1 | -1.2 | 8.3 | -25.3 | 2.9 | 5007 | 1.4 | -8.7
O=C(Oc1c(Cl)cc(Cl)c2ccccc12)N1CCCCC1 | . | . | 5.7 | -15.3 | 2243 | -0.4 | 72.7
COc1ccc(C(=O)Nc2ccc(N3CCOCC3)cc2)cc1S(=O)(=O)NC1CCCC1 | -5.3 | 13.8 | -25.8 | -2.9 | 3044 | 4.7 | 2.8
Cc1ccc(Nc2nc3c(c(=O)[nH]c(=O)n3C)n2Cc2ccc(F)cc2)cc1 | . | . | -8.6 | 10.8 | 5753 | 3.3 | -4.1

# (continued)
SMILES,Mtb hypoxia inh,Mtb hypoxia inh growth,PrP 5UTR inh,BJeLR viability,Bead autofluor,RN4220 kill,Sa ugtP lethal
CNS(=O)(=O)c1ccc(NCC2COc3ccccc3O2)c([N+](=O)[O-])c1 (stereo not given),4.7,1.4,-18.4,4.0,2950,4.1,6.2
COC(=O)c1c(C(=O)OC)c(-c2ccc(OC)cc2)n2c1CCC2,13.8,0.6,-12.7,-3.8,2943,2.8,10.0
COCCn1c(C)cc(C(=O)CSc2nnc(C)s2)c1C,.,.,57.3*,-1.2,4525,-1.3,8.1
COc1ccc(N(CC(=O)NCc2ccc(F)cc2)C(=O)c2snc(C(N)=O)c2N)cc1,3.1,-2.8,-24.8,-1.1,3808,7.1,3.4
Cc1ccc(-n2c(SCC(=O)N(C)C)nnc2-c2ccco2)cc1,2.5,-7.3,-7.5,-3.3,3536,-0.5,11.8
COc1ccc(Sc2nnc(Cc3ccccc3)c3ccccc23)cc1,6.7,-3.7,.,3.5,8347,-0.7,42.7
O=C(NCCCN1CCCCC1)c1ccc2c(c1)NC(=O)C(N1CCCCC1)S2 (stereo not given),9.9,9.4,-3.5,1.7,3468,-3.2,1.4
O=C(COC(=O)Cc1ccc(Cl)cc1)Nc1c(F)cccc1F,-0.3,8.3,-11.7,3.5,2508,4.8,6.1
N#CCCN1CCN(CCC#N)c2ccccc21,17.4,6.6,-13.5,.,3392,5.5,-8.2
Cc1cc(C=O)c(C)n1-c1cc(C(=O)O)cc(C(=O)O)c1,-2.5,3.6,-17.7,-7.7,3948,1.1,5.3
Nc1c(C=C2C=CC(=O)C=C2)c(=O)nc2sc(CC(=O)N3CCOCC3)nn12,2.7,6.2,-11.0,-11.2,5016,0.2,0.9
Cc1noc(C)c1COc1ccccc1C(=O)NCCc1ccc(S(N)(=O)=O)cc1,8.1,13.6,-2.4,-3.3,5733,8.4,13.0
CC(C)N(CC(O)COc1ccc(CC(N)=O)cc1)CC(O)COc1ccc(CC(N)=O)cc1 (stereo not given),-8.0,-6.3,12.9,9.4,2931,-0.3,3.7
O=S(=O)(NC1=NCCC1)c1cccc(NC(=S)NCCc2ccccc2)c1,5.2,8.8,-14.9,6.6,2168,5.2,5.7
CC(=O)Nc1ccc(NC(=O)/C=C/c2cccc(C(F)(F)F)c2)cc1,4.7,1.0,-15.6,15.5,2765,2.9,-4.5
Cc1cc(C)cc(NC(=O)c2cccc(N3C(=O)C4C5C=CC(C5)C4C3=O)c2)c1 (stereo not given),11.4,0.5,-25.9,0.0,5398,3.5,6.7
CCOc1ccc(N(C(=O)c2snc(C(N)=O)c2N)C(C)C(=O)NC2CCCCC2)cc1 (stereo not given),3.7,-3.3,-11.6,3.0,3785,0.2,0.4
CC(C)(C)NCC(O)COc1nsnc1N1CCOCC1 (stereo not given),5.8&4.3,0.3&10.5,.,.,.,8.1&6.7,1.8&0.8
Cc1c(NC(=O)COC(=O)/C=C/c2ccccc2Br)c(=O)n(-c2ccccc2)n1C,6.9,-2.7,-21.8,.,7940,3.8,2.1
COC1CCCN(Cc2c(C(=O)N3CCc4ccccc4C3)nc3ccc(Cl)cn23)C1 (stereo not given),1.1,-5.0,-0.8,-2.0,4989,4.0,7.8
COc1nc(OC)nc(N2CCC(C(=O)NCc3ccc(F)cc3)CC2)n1,4.6,2.2,-28.8,-4.0,9673,1.1,12.0
CCC(C(=O)Nc1ccc2c(c1)OCCO2)n1c(=O)[nH]c2ccccc2c1=O (stereo not given),-7.5,9.9,7.1,-6.1,5960,-2.1,-2.8
O=C(O)COn1c(-c2ccccc2)nc2ccc([N+](=O)[O-])cc21,16.0,-2.3,-64.1,-3.2,2116,1.9,-2.1
CCc1ccc(NC(=O)CSc2nc3cc(C(=O)OC)ccc3c(=O)n2Cc2ccco2)cc1,11.1,2.9,-19.2,4.5,6295,9.3,3.6
CCn1c(SCC(=O)NCc2ccco2)nnc1-c1ccc(N)cc1,.,.,-10.8,7.3,3587,0.5,-2.7
CC1CCC(=NNC(=O)c2ccccc2-n2cccc2)CC1 (stereo not given),1.0,7.9,7.2,-0.4,?,1.2,-0.4
Cc1c(C(=O)O)sc2nc(/C=C/c3cccc(F)c3)[nH]c(=O)c12,2.1,0.4,-22.8,5.4,3628,-1.0,1.9
CCN1C(=O)/C(=C/C=C2/Sc3ccccc3N2CCO)SC1=S,24.6,-11.1,-15.1,28.9,4544,3.5,18.8
COc1ccc2[nH]cc(C(=O)CN3CCN(C/C=C/c4ccccc4)CC3)c2c1,0.1,6.6,.,.,.,-19.5,-15.7
CCOc1ccc(NC(=O)c2ccc(N3CC4CC(C3)c3cccc(=O)n3C4)c(N)c2)cc1 (stereo not given),20.4,2.9,-13.7,4.4,5545,0.9,3.3
CCOc1ccccc1N1CCN(CC(=O)NC(=O)NCc2ccco2)CC1,1.2,9.4,-8.6,5.7,4368,0.1,15.1
O=c1[nH]cnc2c1C1(CCCC1)Cc1ccccc1-2,.,.,0.5,-7.5,3546,-4.0,-7.5
CC(C)c1cc(C(=O)N2CCCC(Nc3ccc(F)cc3)C2)n[nH]1 (stereo not given),3.5,-5.1,-10.1,-0.9,4511,1.1,4.4
COC1(OC)N=C(N)C2(C#N)C(c3ccc(C)cc3)C12C#N (stereo not given),.,.,-9.5,-5.9,2398,-6.2,17.3
CCN1CCN(C(c2cc(OC)c(OC)c(OC)c2)c2nnnn2C(C)C)CC1 (stereo not given),.,.,-13.3,-1.9,4306,-2.8,1.7
Cc1n[nH]c(C)c1NC(=O)CN1CCN(S(=O)(=O)c2ccc(C(F)(F)F)cc2)CC1,6.1,2.0,-2.1,.,2895,1.8,-2.4
O=C1N[C@@H](Cc2c[nH]c3ccccc23)COC(=O)[C@H](Cc2ccc(F)cc2)C/C=C\C[C@H]1CC(=O)N(CCO)Cc1ccccc1,-7.4,-8.9,-0.1,.,4380,15.4,3.0
CCCCC(C(=O)NC(C)(C)C)N(Cc1ccccc1Cl)C(=O)c1snc(C(N)=O)c1N (stereo not given),-1.7,4.2,-4.2,18.4,3853,-1.2,27.6
O=[N+]([O-])c1ccc(N2CC2)c([N+](=O)[O-])c1,3.9,9.8,-18.2,.,3613,0.6,-0.5
CCN(CC(=O)Nc1ccccc1C(F)(F)F)C(=O)Cn1c(=O)cnc2ccccc21,5.0,-2.0,-9.8,2.0,.,0.6,4.6
C=CCc1cc(Cl)ccc1OC(=O)Nc1cccc(Cl)c1,2.0,4.8,-15.7,7.5,4825,-6.0,-20.9
C/C(O)=C(/C=Nc1ccccc1)C(=O)Nc1ccccc1,5.2,0.5,-24.1,-1.4,4835,-1.0,-14.7
N#Cc1ccc(C(=O)NCC(c2ccco2)N2CCCCC2)cc1 (stereo not given),.,.,-13.8,-5.8,2488,0.8,7.6
Cc1c(Cl)cccc1N=C(N)N=C(N)N,-22.6,-3.3,-11.5,4.8,2055,-4.5,-1.6
Cc1ccc(N2C(=O)c3ccccc3NC2c2ccccc2O)cc1 (stereo not given),6.9,-4.3,-19.9,6.8,3017,1.4,-0.9
CC(Oc1ccc2ccc(=O)oc2c1)C(=O)NCC1CCC(C(=O)O)CC1 (stereo not given),.,.,3.3,-8.4,4305,1.3,5.5
CN(C)c1ccc(C(CNS(=O)(=O)c2ccc(F)cc2)c2c[nH]c3ccccc23)cc1 (stereo not given),7.0,1.0,-8.2,4.3,2252,4.7,-14.5
[O-][n+]1onc2c1CCc1[nH]c(-c3ccccc3)nc1-2,-0.5,-2.0,-0.6,0.3,4647,7.3,8.6
COc1cc(NS(=O)(=O)c2ccc(OC)c(OC)c2)cc(OC)c1,8.6,2.2,-22.9,2.2,8229,3.2,6.9
CC(=NNc1cc(Cl)nc(C)n1)c1ccccc1,2.7,6.8,.,.,.,2.2,6.9
CC(C)(C)C(=O)NC1CC2CCCC(C1)N2C(=O)Nc1ccccc1F (stereo not given),15.7,6.1,-35.7,1.0,3195,3.9,4.6
CCNC(=O)NNC(=O)C1CC(c2cccnc2)=NO1 (stereo not given),-4.8,1.0,-20.8,7.9,?,1.5,3.9
Cn1nc(C(F)(F)F)c(-c2ccc(F)cc2)c1NC(=O)c1ccco1,-5.7,2.5,-20.6,-1.1,.,-4.4,-16.5
O=C(CCc1ccccc1)N1CCN(c2ccc([N+](=O)[O-])cc2)CC1,11.2,12.5,-27.5,6.2,4167,4.1,3.7
COc1cc(C(=O)Nc2cc(C)ccc2C)ccc1OCc1c(C)noc1C,1.6,-1.7,-14.0,.,3052,-1.0,-5.8
Cc1ccc2[nH]c(=O)c3cc(C(=O)N(C)C4CCCCC4)sc3c2c1,0.6,3.4,-6.4,-3.6,4243,-0.3,-10.8
COc1ccccc1NS(=O)(=O)c1cccc(-n2c(O)c(C=Nc3ccccc3C(=O)O)c3ccccc3c2=O)c1,10.9,6.4,-13.2,-0.2,5278,25.6,26.9

# High-throughput results as filed in PubChem BioAssay.
